Assay outcomes: PubChem, National Center for Advancing Translational Sciences (NCATS)
B2AR arrestin: agonists driving beta-arrestin recruitment to human beta2-adrenergic receptor. 330,000 tested, 0.02% active. P07550. Potency, µM (top dose mostly 46.1 µM), without a hit: top-dose activation, hits mostly activators. beta-arrestin recruitment to beta2AR, cell-based reporter;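 further: potency means the concentration at half of the fitted maximal effect; 0% = DMSO controls and full agonism = EC100 isoproterenol or metaproterenol; nearly all actives have a fitted effect of over 65% in size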
Tb PFK block: T. brucei PFK enzyme inhibition; O15648; AID 485367; 330,000 tested, 0.17% active; T. brucei PFK, ADP-Glo luminescence; Potency, µM (highest dose often 57.5 µM), inactives show at the highest dose activity, negative = inhibition, actives largely listed as inhibitors;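 further: potency means the concentration at half of the fitted maximal effect; 0% = uninhibited 1x PFK enzyme wells and -100% = no-enzyme wells; nearly all actives have a fitted effect of over 60% in size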
Target sequence (O15648 whole entry, looked up): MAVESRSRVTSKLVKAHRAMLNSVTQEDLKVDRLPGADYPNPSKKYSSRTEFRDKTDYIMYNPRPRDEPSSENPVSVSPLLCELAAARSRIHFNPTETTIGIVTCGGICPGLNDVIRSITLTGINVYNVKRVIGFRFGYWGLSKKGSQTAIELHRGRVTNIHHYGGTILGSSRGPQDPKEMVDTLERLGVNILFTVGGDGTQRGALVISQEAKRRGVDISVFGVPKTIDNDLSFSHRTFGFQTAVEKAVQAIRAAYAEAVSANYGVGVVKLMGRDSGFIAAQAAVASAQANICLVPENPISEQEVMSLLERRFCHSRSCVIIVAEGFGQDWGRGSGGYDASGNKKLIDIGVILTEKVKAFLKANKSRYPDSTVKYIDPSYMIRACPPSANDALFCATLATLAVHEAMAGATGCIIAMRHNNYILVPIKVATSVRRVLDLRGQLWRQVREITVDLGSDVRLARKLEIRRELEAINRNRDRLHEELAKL
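Compounds were pin-transferred as a titration series up to 57 uM into substrate buffer (0.5 mM F6P, 0.1 mM ATP, pH 8.0), then 1.25 nM PFK was added and reactions ran 45 min before ADP-Glo detection.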
BCR signal inh: chronic active BCR signaling inhibition. Potency, µM (doses to about 46.1 µM), without a hit: top-dose ratio change, negative = lower green/red ratio, most hits filed as inhibitors. 340,000 tested, 0.05% active. AID 493014. ABC-DLBCL IkBa-CBG/CBR reporter, luminescence ratio, 4 h; active means well fitted inhibition curve with a large enough effect in the signal ratio, with a control signal flat, not every such curve was filed as active; inconclusive means small, poorly fitted or top-dose-only effect, or effect the other way, or a change in a side signal; the % refers to the signal ratio;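 further: potency means the concentration at half of the fitted maximal effect; plate controls were basal doxycycline-induced cells for no effect and cells given 10 µM MG132 for full effect; MG132 reads +100%, hits lower the ratio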
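TMD8 ABC-DLBCL cells carrying doxycycline-inducible green luciferase fused to IkappaBalpha plus unfused red luciferase were exposed to compounds (up to 46 uM) for 4 hrs at 37C. Activity came from the overlap-corrected green/red luminescence ratio.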
ELG1 repair inh: blocks ELG1-dependent DNA repair in HEK293T cells. Potency, µM (doses to about 46.1 µM), for inactives: at the top dose activity change, negative = inhibition, most hits filed as inhibitors. HEK293T ELG1-luciferase reporter, luminescence, 16 h; DNA damage induced by 5-fluorouridine. 330,000 tested, 2.3% active; further: potency means the concentration at half of the fitted maximal effect; on the % scale 0 is the no-effect control and ±100 the full control effect; nearly all actives have a fitted effect of over 55% in size
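DMSO vehicle served as the neutral condition. Each well held 2,000 cells given 5-fluorouridine plus compound; after 16 hr at 37 °C/5% CO2, ONE-Glo was added and luciferase measured 30 min later.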
Mito fusion yeast: mitochondrial division inhibition or fusion activation; AID 485298; S. cerevisiae fusion-defective mutant growth rescue, CellTiterGlo 48 h; 320,000 tested, 0.23% active; Potency, µM (series often up to 46.1 µM), without a hit: at the highest dose growth rescue (activation), most hits filed as activators;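 further: potency means the concentration at half of the fitted maximal effect; % of control where 0% means no effect; nearly all actives have a fitted effect of over 45% in size; temperature-sensitive fusion mutants such as fzo1-1 at 37 °C on non-fermentable ethanol glycerol medium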
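Luminescent cell viability in 1536-well qHTS format served as the measure of rescued growth in ts fusion-mutant S. cerevisiae cultured on non-fermentable YPEG for 48 hours at 37C.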
TSG101-PTAP inh: blocks PTAP/TSG101 interaction to inhibit HIV-1 budding; Fluorescence polarization, FITC-PTAP peptide / Tsg101 binding; Potency, µM (doses to about 115 µM), without a hit: top-dose activity change, negative = inhibition, usual class: inhibitors; Q99816; 340,000 tested, under 10 active; active means well fitted inhibition curve with a large enough effect in the main read-out, with a control signal flat, not every such curve was filed as active; inconclusive means small, poorly fitted or top-dose-only effect, or effect the other way, or a change in a side signal; inactive means no such curve, though single readings can be large or run the other way; further: potency means the concentration at half of the fitted maximal effect; % of control where 0% means no effect
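FP read-out: FITC-PTAP peptide, 50 nM final, binding Tsg101 binding domain, 10 uM final; 20 min, r.t.; 10 mM HEPES pH 7.5, 0.15 M NaCl, 0.01% Tween 20, 3 mM EDTA, 0.1 mM TCEP.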
uPA surface inh: cell surface uPA generation inhibition; cell surface uPA generation assay, qHTS; Potency, µM (series often up to 38.3 µM), for inactives: at the highest dose activity change, negative = inhibition, actives largely listed as inhibitors; 330,000 tested, 0.31% active; active means well fitted inhibition curve with a large enough effect; inconclusive means small, poorly fitted or top-dose-only effect; inactive means no such curve, though single readings can be large or run the other way; tested in mouse RAW 264.7 cells; further: potency means the concentration at half of the fitted maximal effect; on the % scale 0 is the no-effect control and ±100 the full control effect; nearly all actives have a fitted effect of over 55% in size
Eya2 inh: inhibitors of human Eya2 phosphatase activity | O00167 | recombinant Eya2, OMFP fluorescence dephosphorylation (OMFP is methylfluorescein phosphate) | Potency, µM (highest dose often 76.9 µM), for the others: at the top dose activity, negative = inhibition, usual class: inhibitors | 330,000 tested, 0.006% active | AID 488837; further: potency means the concentration at half of the fitted maximal effect; on the % scale 0 is the no-effect control and ±100 the full control effect
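Eya2 (0.2 uM) preincubated 10 min at ambient with compound, then OMFP substrate added at 50 uM; 10 min reaction in 50 mM HEPES pH 7.5, 50 mM NaCl, 5 uM MgCl2, 0.05% BSA, 1 mM DTT. Fluorescence read at Ex 485/Em 525 nm.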
USP2a block: inhibitors of human ubiquitin-specific protease USP2a | O75604 | USP2 core, Ub-CHOP2 coupled fluorogenic reporter, 485/531 | Potency, µM (highest dose often 38.3 µM), for inactives: at the highest dose activity change, negative = inhibition, usual class: inhibitors | 330,000 tested, 0.01% active | AID 463254;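 further: potency means the concentration at half of the fitted maximal effect; plate controls were DMSO wells for no effect and full inhibition by NEM control for full effect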
Target sequence (O75604 whole entry, looked up): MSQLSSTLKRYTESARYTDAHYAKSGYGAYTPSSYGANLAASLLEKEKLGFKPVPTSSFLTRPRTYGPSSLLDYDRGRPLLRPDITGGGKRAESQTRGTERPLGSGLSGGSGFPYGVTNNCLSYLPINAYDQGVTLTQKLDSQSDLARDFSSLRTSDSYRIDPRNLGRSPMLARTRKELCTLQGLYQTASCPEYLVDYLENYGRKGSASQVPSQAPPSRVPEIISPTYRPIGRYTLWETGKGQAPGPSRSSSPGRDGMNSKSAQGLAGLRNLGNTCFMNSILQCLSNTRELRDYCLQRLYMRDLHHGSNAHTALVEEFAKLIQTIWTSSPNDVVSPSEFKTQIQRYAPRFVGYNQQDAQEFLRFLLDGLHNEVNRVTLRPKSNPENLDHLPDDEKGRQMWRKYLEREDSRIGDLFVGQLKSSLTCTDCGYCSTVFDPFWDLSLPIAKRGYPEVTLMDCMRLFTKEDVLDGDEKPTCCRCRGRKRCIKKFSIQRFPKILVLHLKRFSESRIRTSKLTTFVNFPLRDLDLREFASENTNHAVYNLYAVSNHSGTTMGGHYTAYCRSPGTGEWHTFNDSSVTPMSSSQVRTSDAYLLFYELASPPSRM
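Cell-free coupled assay: 10nM USP2 core preincubated 30min RT with compound in Tris-HCl pH 8.0/CaCl2/CHAPS buffer, then 25nM Ub-CHOP2 and 25nM reporter substrate; fluorescence (Ex 485/Em 531) read after 60min RT, normalized to NEM inhibition, concentration-response curves fitted.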
TCR activator: T cell receptor activation; primary human leukocytes, anti-CD3, IL-2 HTRF, 48 h; Potency, µM (titrated, usually from 9.22 µM), inactives show at the top dose activation of IL-2 secretion, most hits filed as activators; 330,000 tested, under 10 active; further: % of control where 0% means no effect
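48 hr co-incubation of compounds, a-CD3 beads and primary human leukocytes; IL-2 quantified homogeneously by HTRF with anti-IL-2 K and d2 conjugates.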
* marks the source's active call; other numbers are inactive results; ? = inconclusive; . = not tested or not shown; & = joins results of further samples; [ ] = remark or other dose. Unless noted, the call rests on the fitted dose curve; in most records, active means well fitted curve in the direction sought with a large enough effect; inconclusive means small, poorly fitted or top-dose-only effect, or another doubt; inactive means no such curve, though single readings can be large; an effect the other way counts as inactive or inconclusive. An excerpt. The share of hits here may be higher or lower than overall.

SMILES | B2AR arrestin | Tb PFK block | BCR signal inh | ELG1 repair inh | Mito fusion yeast | TSG101-PTAP inh | uPA surface inh | Eya2 inh | USP2a block | TCR activator
Nc1ccn([C@@H]2O[C@H](COS(=O)(=O)O)[C@@H](O)[C@H]2O)c(=O)n1 | -0.3% | 0% | -3% | ? | . | 0% | 0% | 1% | -12% | 9%
O=C(O)CN1C(=O)SC(Nc2ccc(C(=O)O)cc2)C1=O (stereo not given) | 3.3% | 0% | ? | 7% | 0% | -5% | -4% | -8% | -2% | -2%
CN1CCN(S(=O)(=O)c2ccc(N3CCN(c4ccc(O)cc4)CC3)c([N+](=O)[O-])c2)CC1 | -0.2% | -14% | 7% | -2% | 2% | 0% | -10% | -4% | 4% | 5%
Cc1cc2nc(CN(C)Cc3c(C(=O)N(C)C)nc4ccc(Cl)cn34)[nH]c2cc1C | -0.4% | 0% | -1% | ? | 0% | -7% | 1% | 4% | 2% | 2%
Cc1cccc2cc(CN(Cc3ccco3)C(=O)c3ccncc3)c(=O)[nH]c12 | 0.0% | 0% | -2% | 11µM* | 0% | -2% | -10% | 5% | 3% | 10%
Cc1noc(C)c1CSCC(=O)Nc1ccc(Br)cc1Cl | -0.1% | 0% | 3% | -5% | 20% | -1% | ? | 16% | -2% | 2%
O=C(c1cncc(Br)c1)N1CCN(S(=O)(=O)c2ccc(Cl)cc2)CC1 | 0.7% | 1% | -6% | ? | 5% | 0% | -2% | -9% | -2% | 4%
Cc1sc2ncn(CC(=O)NCCCC(=O)N3CCN(c4ncccn4)CC3)c(=O)c2c1C | -0.8% | 4% | -1% | -10% | 3% | -3% | 4% | 15% | 1% | 3%
O=C(Cn1c(NCCCO)nc2ccccc21)c1ccc(Br)cc1 | -0.7% | 1% | ? | 8% | -2% | 3% | -7% | 4%[15.4 µM] | 2% | 12%
Cn1c(CCNC(=O)c2ccccc2F)nnc1SCC(=O)Nc1nncs1 | -0.3% | -3% | 0% | 13% | 2% | 0% | 2% | -10% | 0% | 0%
CCCn1c(C2CCCN2c2nc(-c3ccc(OC)cc3)cs2)nc2ccccc21 (stereo not given) | 2.7% | -2% | ? | -17% | -15% | -2% | 1% | -15% | -5% | -1%
CC(C(=O)O)c1ccc(-c2ccccc2)c(F)c1 (stereo not given) | -1.2%&0.5% | -2%&-3% | 8%&9% | 21%&3% | 2%&1% | -1%&1% | -3%&-8% | 5%&6% | 1%&1% | 5%&-13%
Cc1cccc(C)c1NC(=O)Cn1nc(-c2ccccc2)nc1-c1ccccc1 | -0.1% | 1% | -8% | 4% | -1% | -1% | . | 19% | -1% | -4%
CC1=CC(C)(C)N(C(=O)CSc2nnc(N)s2)c2cc(C)c(C)cc21 | 0.0% | 1% | -23% | -5% | 4% | -22% | . | 1% | 0% | 10%
O=C(NC1CC1)c1ccc2c3c(cccc13)CC2 | -2.5% | -7% | 0% | 2% | 5% | 1% | 0% | 3% | 2% | -7%[46.1 µM]
CC(C)Cc1nnc(NC(=O)CCC(=O)N2CCN(c3ccc(Cl)cc3)CC2)s1 | -1.1% | 3% | -19% | -3% | -4% | -6% | 0% | -3% | 0% | 6%
COc1ccc(CCNC(=O)CCCn2ncn3c(cc4occc43)c2=O)c(OC)c1 | 0.1% | 2% | 1% | -4% | 8% | -2% | 0% | -3% | 2% | -7%
CCCCc1c(O)nc2sc3cc(OC)ccc3n2c1=O | -0.1% | 4% | ? | ? | 2% | -3% | -5% | 12% | 5% | -1%
COc1ccc(/C=C2\N=C(C)N(c3ccc4ccccc4c3)C2=O)cc1OC | 0.0% | 9% | -10% | -11% | 4% | 5% | 13% | 5% | 1% | 6%[46.1 µM]
COc1ccc(NC(=O)C(c2cc3c(cc2[N+](=O)[O-])OCO3)N(C)C)cc1 (stereo not given) | -0.8% | 3% | 1% | 25% | 0% | 1% | 7% | 10% | 2% | -2%[46.1 µM]
CCOC(=O)/C(=N/O)C1=NC(C)(C)Cc2cc(C)c(C)cc21 | -0.1% | 3% | -26% | ? | -2% | 0% | -4% | -21% | -1% | -3%
c1ccc2[nH]c(NC3=NCCC3)nc2c1 | 0.5% | -4% | 0% | -11% | -10% | -5% | 4% | -27% | 1% | -3%
Nc1ncn([C@H]2C[C@H](O)[C@@H](CO)O2)c(=O)n1 | -0.1% | -1% | 0% | 13% | -2% | 0% | -72% | -8% | 1% | -4%
COc1cccc2cc(C(=O)CS(=O)(=O)c3ccc(C)cc3)c(=O)oc12 | 0.1% | -9% | ? | 26% | -11% | -6% | -4% | 10% | 4% | -1%
O=C(CCOc1ccccc1)Nc1cccc(S(=O)(=O)Nc2ccccc2Cl)c1 | -0.1% | -2% | ? | -25% | 25% | 3% | -2% | 7% | 1% | 6%[46.1 µM]
CC(C)N(C(=O)c1ccc2nc(-c3ccccc3)c(-c3ccccc3)nc2c1)C(C)C | -0.6% | -2% | 6% | -18% | 23% | -2% | 1% | -9% | -1% | -4%[46.1 µM]
CNC(=O)/C=C/c1cccc(C(F)(F)F)c1 | -0.6% | 0% | ? | 15% | 0% | -2% | 3% | 1% | 4% | -2%[46.1 µM]
CCCS(=O)(=O)N1CCC(C(=O)NCCCN(CC)c2cccc(C)c2)CC1 | -0.2% | -5% | -4% | -11% | 6% | 0% | 4% | -4% | 1% | 3%
CCN1CCCC1CNS(=O)(=O)c1ccc(Cl)c(C(F)(F)F)c1 (stereo not given) | 0.1% | -2% | -3% | 3% | -5% | -1% | -5% | 0% | -1% | .
CCN1CCN(c2nc(S(=O)(=O)c3ccc(C)cc3)c(Cl)s2)CC1 | 0.1% | -2% | 0% | ? | -11% | -6% | . | 11% | 0% | -4%
CC(=O)c1cccc(NC(=O)Cn2nc(-c3ccc(Cl)cc3)ccc2=O)c1 | 0.0% | 27% | 11% | -2% | 4% | 0% | ? | 4% | 3% | 6%
COc1ccccc1CC(=O)Nc1ccc(-c2noc(COc3ccc(Cl)c(C)c3)n2)cc1 | -0.2% | -6% | -4% | 17% | 4% | -2% | 1% | 5% | 0% | -3%
CCC(CC)C(=O)NC12CC3CC(CC(C3)C1)C2 | -0.1% | -22% | 7% | 6% | -3% | -4% | -2% | 7% | 3% | -7%
CCn1c(C)nc2cc(C(=O)N/N=C(\C)c3ccc(N4CCOCC4)cc3)ccc21 | -0.3% | 1% | ? | -11% | -2% | -1% | 2% | -5% | 3% | -3%
Cc1noc(C)c1CSCC(=O)NC1=NCCS1 | -0.6% | 3% | -5% | -4% | 3% | 0% | . | 2% | 1% | 0%
CC12CCC(=O)C=C1CCC1C2C(=O)CC2(C)C1CCC2(O)C(=O)CO (stereo not given) | 0.2% | -1% | ? | 1% | -1% | 0% | -7% | 5% | 1% | 1%
CN(C)CCN(C(=O)C1CCCCC1)c1nc2cc3c(cc2s1)OCO3 | -0.2% | -1% | 0% | 8% | -4% | -3% | -3% | -3% | -2% | -2%
COC(=O)[C@H](CC(C)C)NS(=O)(=O)N(Cc1ccccc1)[C@@H](CC(C)C)C(=O)OC | 0.2% | -1% | ? | -13% | 1% | -1% | 9% | -12% | 3% | 4%
CCNC(=O)N1C(=O)C2(OCCO2)c2ccccc21 | -0.2% | 2% | 2% | -3% | -4% | -4% | 3% | -10% | 0% | 4%
O=C(O)CN(CCN(CC(=O)O)CC(=O)O)CCN(CC(=O)O)CC(=O)O | . | . | . | . | -9% | . | . | -1% | . | .
Cc1sc2ncn(CC(=O)NCCCC(=O)N3CCN(c4ccccc4)CC3)c(=O)c2c1C | -0.1% | -3% | 0% | -4% | 0% | -6% | 2% | 14% | 2% | -1%
O=S(=O)(c1cc(C(F)(F)F)ccc1Cl)N1CCN(c2ncnc3ccccc23)CC1 | -0.2% | -6% | -4% | ? | 14% | 2% | -9% | 11% | 3% | -1%
O=C(NC1CCCC1)C1CCN(C(=O)c2ccc(Cl)cc2Cl)CC1 | -0.4% | 1% | 9% | 2% | 2% | -2% | -2% | ? | 4% | -6%
CC12CCC(=O)C=C1CCC1C2C(=O)CC2(C)C1CC[C@]2(O)C(=O)CO (stereo not given in full) | 0.0% | -1% | -14% | -13% | -4% | -4% | -1% | 2% | -1% | 2%
COC(=O)c1c(NC(NC(=O)C(C)C)C(Cl)(Cl)Cl)sc2c1CCC2 (stereo not given) | -1.1% | 1% | ? | -2% | 1% | -3% | 4% | 1% | 3% | 3%[46.1 µM]
Cc1ccc(NC(=O)c2ccc3c(c2)OCCO3)cc1S(=O)(=O)Nc1cccc(Cl)c1 | -0.4% | -2% | ? | ? | 25% | 1% | 4% | 4% | -15% | -3%[46.1 µM]
O=C(CCN1C(=O)c2ccncc2C1=O)Nc1cc(F)ccc1F | 0.0% | -8% | 7% | 19% | 8% | -1% | 3% | -2% | 2% | -42%
